KCNQ2 pot: potentiators of rat KCNQ2 potassium channel; B-score at 10 µM; CHO-K1 KCNQ2, FluxOR thallium flux fluorescence; stronger effect = higher value; Potassium voltage-gated channel subfamily KQT member 2 (Rattus norvegicus), O88943; 310,000 compounds, 0.54% hits; AID 2239, 2010;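 active means fluorescence ratio B-score at least 3 SD of library B-scores, with initial fluorescence B-score within 3 SD, cut at about 5.3 in these data; same plate scores as AID 2156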;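 further: B-score of peak minus minimum over baseline fluorescence ratio after K+ and Tl+ stimulus; positive B-score means potentiation of KCNQ2 with more thallium influx and brighter signal; only the inactives scoring about 0 or higher are listed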
Target sequence (O88943 whole entry, looked up): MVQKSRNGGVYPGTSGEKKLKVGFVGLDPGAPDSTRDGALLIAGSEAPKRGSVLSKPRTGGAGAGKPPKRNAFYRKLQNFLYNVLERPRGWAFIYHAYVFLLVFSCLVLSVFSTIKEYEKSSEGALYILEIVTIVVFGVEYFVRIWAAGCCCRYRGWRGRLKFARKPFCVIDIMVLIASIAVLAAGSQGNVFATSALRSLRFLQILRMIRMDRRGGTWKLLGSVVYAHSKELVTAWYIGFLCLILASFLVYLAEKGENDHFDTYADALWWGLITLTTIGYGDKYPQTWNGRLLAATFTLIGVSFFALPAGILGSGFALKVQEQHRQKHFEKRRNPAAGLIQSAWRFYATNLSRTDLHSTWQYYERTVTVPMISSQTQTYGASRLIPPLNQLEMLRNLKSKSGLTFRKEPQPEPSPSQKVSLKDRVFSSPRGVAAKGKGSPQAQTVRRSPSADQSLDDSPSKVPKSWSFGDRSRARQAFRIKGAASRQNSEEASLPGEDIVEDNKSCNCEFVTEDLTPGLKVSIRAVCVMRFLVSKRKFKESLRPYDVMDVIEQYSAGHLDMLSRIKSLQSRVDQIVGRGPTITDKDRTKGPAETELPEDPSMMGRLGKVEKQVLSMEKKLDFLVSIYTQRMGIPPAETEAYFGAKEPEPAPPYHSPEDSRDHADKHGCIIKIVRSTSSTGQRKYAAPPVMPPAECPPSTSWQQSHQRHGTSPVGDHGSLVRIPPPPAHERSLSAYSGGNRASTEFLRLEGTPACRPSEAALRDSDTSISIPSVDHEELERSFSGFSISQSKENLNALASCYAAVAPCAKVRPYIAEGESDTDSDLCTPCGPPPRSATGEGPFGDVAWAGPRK
KCNQ2 pot baseline: recorded beside KCNQ2 pot, whose call it bears; B-score; compound at 10 µM; measured here: initial fluorescence intensity artifact check;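 brightness before thallium and not channel activity; 0 = typical well and far values either way flag optical interference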
* = called active by the depositor.

KCNQ2 pot	KCNQ2 pot baseline	Compound
0.02	-1.25	CC(CCc1ccccc1)NC(=O)COC(=O)c1ccc([N+](=O)[O-])cc1 (stereo not given)
1.08	1.82	CNC(=S)N1N=C(c2ccc(C)cc2)CC1c1ccc(OC)cc1 (stereo not given)
0.84	0.27	O=C(CSc1nnc2ccc(-c3ccc(Br)cc3)nn12)NCC1CCCO1 (stereo not given)
1.02	-0.06	CCc1ccc(C(=O)COc2ccc(NC(C)=O)cc2)cc1
1.07	-1.51	CC(=O)Nc1ccc(C(=O)CSc2nnc(-c3ccc(O)cc3)n2CC2CCCO2)cc1 (stereo not given)
0.15	-0.15	CC(C)Cc1nnc(NC(=O)Nc2ccccc2)s1
2.81	1.52	O=C(O)c1ccccc1NS(=O)(=O)c1ccc2ccccc2c1
0.54	-1.23	COc1ccc(CNc2nc3c(c(=O)[nH]c(=O)n3C)n2CCCc2ccccc2)cc1
8.17*	2.09*	COc1ccc2nc(N=Nc3c(O)ccc4ccccc34)sc2c1
1.13	0.43	COc1ccc(C(=O)Nc2ccccc2C(=O)N2CCOCC2)cc1Br
0.01	1.8	CCOC(=O)Cn1c(=O)oc2cc(S(=O)(=O)NC3CCCc4ccccc43)ccc21 (stereo not given)
0.21	0.12	CC(=O)Nc1ccc(NC(=O)CSc2ccc3nnc(CCNS(=O)(=O)c4ccc(C)cc4)n3n2)cc1
0.16	0.72	C=C(C)CN(CC)C(=O)Cn1cnc2c(oc3ccccc32)c1=O
1.56	-0.33	NC(=O)c1cnn(-c2cccc(Cl)c2)c1N
0.01	-3.24	Cc1ccc2nsnc2c1S(=O)(=O)N1CCN(C)CC1
0.54	-1.09	CCOC(=O)C1C2C=CC3(CN(c4ccccc4CC)C(=O)C13)O2 (stereo not given)
0.55	-1.46	Cc1c(C(=O)NCc2c(F)cc(F)cc2F)oc2ccc(S(=O)(=O)N3CCOCC3)cc12
1	0.34	COc1cccc(CNC(=O)Cn2c(=O)oc3ccccc32)c1OC
0.65	2.67	Cc1ccc(S(=O)(=O)CCC(=O)NCCN2C(=O)S/C(=C/c3ccc(F)cc3)C2=O)cc1
0.17	-2.58	Cc1cccc(S(=O)(=O)c2c(N)n(/N=C/c3ccco3)c3nc4ccccc4nc23)c1
0.63	-1.12	CCOC(=O)C1=C(N)N2C(=O)CSC2=C(C(=O)OC)C1
0.58	-0.14	CC(=O)c1ccc(NC(=O)CCNC(=O)c2ccc(Cl)cc2)cc1
0.78	-1.4	CCCCNC(=O)c1oc2ccc(S(=O)(=O)N3CCCC3)cc2c1C
1.22	3.16	CC(=O)Nc1ccc(Sc2ccccc2C(=O)O)cc1
0.01	-1.81	Cn1cc(Br)c(-c2cccc(N3C(=O)CC(C)(C)CC3=O)c2)n1
7.23*	-0.36*	Cc1ccc(NC(=S)NC(=O)c2cncc(Br)c2)cc1Cl
0.11	-1.37	CS(=O)(=O)N1N=C(c2ccco2)CC1c1ccc(Br)cc1 (stereo not given)
3.18	-0.31	O=S1(=O)Nc2c(ccc3cccnc23)-c2ccccc21
0.01	-0.52	O=c1c2ccccc2nc(SCc2nc3ccccc3s2)n1CCCO
2.05	0.42	COCCN1CCn2c(nc3cc(Nc4nnc(C)c5ccccc45)ccc32)C1
0.05	-0.49	CCOC(=O)C1CCCN(C/C=C/c2ccccc2[N+](=O)[O-])C1 (stereo not given)
0.58	-0.98	O=C(O)c1ccc(NC(=S)N2CCCCC2)cc1
0.5	0.01	c1ccc(CSc2ccc3nnc(-c4cccnc4)n3n2)cc1
0.88	0.03	Cc1cc(C)cc(NC(=O)CCC(=O)Nc2nnc(C(C)C)s2)c1
0.96	-0.54	c1ccc(Nc2c3c(nc4ncnn24)CCC3)cc1
0.61	-0.48	CC(SC1CCCC1)C(=O)NC(C)(C#N)C(C)C (stereo not given)
0.33	-0.06	COc1ncccc1C(=O)N1CCCC(C(=O)c2cc(F)ccc2F)C1 (stereo not given)
6.31*	-0.07*	N#Cc1ccccc1Sc1ccccc1C(=O)OCC(=O)NC12CC3CC(CC(C3)C1)C2
0.54	-0.59	CN(C)CCCN(C(=O)c1ccco1)c1nc2c(F)cc(F)cc2s1
0.74	-1.37	Cn1c(SCC(=O)Nc2ncc(C(F)(F)F)cc2Cl)nnc1-c1ccc(Cl)cc1
0.61	1.45	C=CCc1cccc(CNc2nc3ccccc3n2C(C)C)c1O
2.08	0.11	Cc1c(OCC(=O)NCCCN2CCCC2=O)ccc2c3c(c(=O)oc12)CCC3
3.71	0.89	CCN(CC)Cc1cc(NC2=NS(=O)(=O)c3ccccc32)ccc1OC(=O)c1ccccc1
1.15	-0.57	CN1CCCC(OC(=O)c2cc(Cl)cc(Cl)c2)C1 (stereo not given)
0.2	-0.63	CCOC(=O)C1CCCN(C(=O)c2ccc(CS(=O)(=O)c3ccc(C)cc3)o2)C1 (stereo not given)
0.36	2.15	Cc1cc2cc(CNC(=O)CCC(=O)O)ccc2n1C
0.99	-0.54	Cc1cccc(NC(=O)Nc2cc(C)cc(C)n2)c1
0.11	0.3	O=C(CN1CCN(c2ccccn2)CC1)Nc1cccc(C(F)(F)F)c1
0.71	0.2	CC(C)OC(=O)CSc1nnc(-c2ccccn2)n1-c1ccccc1
1.13	-0.35	O=C(CN1CCN(c2ccc(F)cc2)CC1)c1ccc2c(c1)OCO2
0.11	0.05	O=C(COc1ccc(F)cc1)N(CC1=CCS(=O)(=O)C1)c1ccccc1
2.06	-0.45	OCCC1CN(Cc2cccc3nccnc23)CCN1C1CCCC1 (stereo not given)
1.44	2.94	O=C(c1cccs1)N1CCN=C1SCc1ccccc1
0.41	-0.98	Cc1cccc(NC(=O)Cn2cnc3sc(C)c(S(=O)(=O)N4CCC(C)CC4)c3c2=O)n1
1.75	-1.15	COc1ccc(Nc2cc(C)c3cc([N+](=O)[O-])ccc3n2)cc1
0.22	0.9	Cc1nnc(-c2ccccc2)o1
2.41	-0.97	Cc1cccc(Nc2cc(C)nc3ccccc23)c1
0.03	1.01	COc1ccc(S(N)(=O)=O)cc1C(N)=O
0.49	1.6	CC(=O)c1cc(-c2ccccc2)n(CCC(=O)NC2CCCCC2)c1C
0.06	-0.57	CCOC(=O)c1ccccc1NC(=O)COc1cc(=O)n(CC)c2ccccc12

Part of the list above, with two lines to a compound:
Values run as follows: KCNQ2 pot	KCNQ2 pot baseline
O=C(c1cccs1)N1CCN=C1SCc1ccccc1
  1.44	2.94
Cc1cccc(NC(=O)Cn2cnc3sc(C)c(S(=O)(=O)N4CCC(C)CC4)c3c2=O)n1
  0.41	-0.98

Remaining list, next part
KCNQ2 pot	KCNQ2 pot baseline	Compound
1.84	-1.59	CCOC(=O)c1c(C)n(CC(O)CN(CC)CC)c2cc(Br)c(OC)cc12 (stereo not given)
0.68	-0.29	COc1ccc(OC)c(NC(=O)C(=O)c2cn(CC(=O)N3CCCC3)c3ccccc23)c1
1.45	-2.06	CCOc1ccc(S(=O)(=O)NCCC(=O)NCC(c2ccc(F)cc2)N2CCOCC2)cc1 (stereo not given)
0.7	-1.13	COC(=O)c1c(NC(=O)CN2C(=O)NC(CCc3ccccc3)C2=O)sc2c1CCCCC2 (stereo not given)
0.47	-0.05	COc1ccc(C(=O)Nn2c(SCC(=O)NC3CCCC3)nc3ccccc3c2=O)cc1
0.23	0.02	CC(C)(C)c1ccc(C(=O)Nc2nnc(Cc3c[nH]c4ccccc34)s2)cc1
1.33	-2.93	CCOC(=O)c1sc(NC(=O)c2ccco2)c(C#N)c1C
1.06	0.66	C[C@@H](NC(=O)[C@@H]1Cc2ccccc2CN1)C(=O)Nc1ccc2c(c1)OCO2
0.36	-0.2	O=C1C2C(C(=O)N1Cc1cccnc1)C1C=CC2C12CC2 (stereo not given)
0.92	0.53	CCOC(=O)/C=C1\SCC(=O)N1CC(O)CN1C(=O)CS/C1=C\C(=O)OCC
1.02	1.1	O=C(N/C(=C\c1ccccc1)C(=O)N1CCOCC1)c1ccccc1Br
0.47	0.42	Cc1ccc(/C=N/NC(=O)c2nnn(-c3nonc3N)c2C(C)C)s1
0.09	0.1	Cc1ccc(C(=O)OCC(=O)NC(=O)c2ccc(C(C)(C)C)cc2)c(O)c1
0.92	1.27	CCSc1nc2sc3c(c2c(=O)n1-c1ccccc1)CCN(C)C3
0.18	0.02	O=C(NCc1ccc(Cl)cc1)C1CCN(S(=O)(=O)c2cc([N+](=O)[O-])ccc2Cl)CC1
1.18	-0.08	OC1(c2ccccc2)c2ccccc2-c2ncccc21 (stereo not given)
2	0.36	CCc1ccc(C(=O)OCC(=O)Nc2cccc(S(=O)(=O)NC3=NCCCCC3)c2)cc1
0.5	1.99	Cc1cccc(NC(=O)CN2C(=O)NC(Cc3ccccc3)C2=O)c1 (stereo not given)
0.43	-0.94	Cc1oc(-c2ccc(Cl)cc2)nc1CS(=O)CC(=O)NC1CCCC1 (stereo not given)
0.22	-0.36	CC(C)CCNC(=O)CN(C(=O)CCC(=O)Nc1nccs1)c1ccc2c(c1)OCCO2
0.81	-0.48	CC1=NN(c2ccc(C)c(C)c2)C(=O)/C1=C\C=C\c1ccc([N+](=O)[O-])o1
1.54	0.12	CCn1cc(C(=O)O)c(=O)c2cnc(N3CCN(C(=S)Nc4ccccc4)CC3)nc21
0.22	0.34	CC(=O)Nc1cc(NC(C)=O)c2nc(N)sc2c1
0.38	0.92	CCN(CC)CC(=O)N1c2ccccc2Oc2c(c(=O)n(C)c(=O)n2C)C1c1cccc([N+](=O)[O-])c1 (stereo not given)
1.51	-0.6	CCOC(=O)C1=NOC(C(=O)NN(C)c2ncc(C(F)(F)F)cc2Cl)C1 (stereo not given)
2.03	0.55	COc1ccc(C(=O)COc2cccc(NC(=O)c3ccco3)c2)cc1
1.48	-0.8	O=C(NCCOCC(F)(F)C(F)F)c1cc(F)c(F)cc1Cl
1.04	0.01	CCN(CC)C(=O)c1ccccc1NC(=O)c1ccccc1SC
1.04	0.82	CCOC(=O)C1(CCOc2ccccc2)CCN(Cc2cc(OC)c3c(c2)OCO3)CC1
1.66	-3.32	COc1cc(/C=N/NC(=O)C(Cc2c[nH]c3ccccc23)NC(=O)OCc2ccccc2)cc([N+](=O)[O-])c1O (stereo not given)
0.31	-0.14	COC(=O)c1cc(OC)c(OC)cc1NC(=O)Nc1ccc(OC)cc1OC
0.02	0	CCCn1c(CN2CCN(C(=O)c3ccco3)CC2)nc2c1c(=O)n(C)c(=O)n2C
0.14	-0.01	O=C(O)c1ccccc1N1C(=O)c2cccc3cccc(c23)C1=O
1.41	1.23	Cc1ccc2c(c1)N(CC(=O)NCc1ccco1)C(=O)CO2
0.98	1.43	O=C(NC1CC2CCC1C2)C1COc2ccccc2O1 (stereo not given)
0.82	0	COc1ccc(C(O)P(=O)(O)CCc2ccccc2)cc1 (stereo not given)
0.72	-1.49	O=C(Nc1cccc2nsnc12)c1ccc2c(c1)OCCO2
1.16	0	CCOC(=O)/C=C/C(=O)OCC(=O)Nc1cccc(Br)c1
0.92	1.75	O=C(CN1C(=O)c2ccccc2S1(=O)=O)c1ccc(Cl)cc1Cl
2.3	0	CCc1cccc(C)c1NC(=O)CSc1nc(-c2ccccc2F)nc2nc[nH]c12

Full records as entered above.
Results for CC1=NN(c2ccc(C)c(C)c2)C(=O)/C1=C\C=C\c1ccc([N+](=O)[O-])o1 → KCNQ2 pot: 0.81; KCNQ2 pot baseline: -0.48
Results for CCn1cc(C(=O)O)c(=O)c2cnc(N3CCN(C(=S)Nc4ccccc4)CC3)nc21 → KCNQ2 pot: 1.54; KCNQ2 pot baseline: 0.12
Results for COc1ccc(C(=O)COc2cccc(NC(=O)c3ccco3)c2)cc1 → KCNQ2 pot: 2.03; KCNQ2 pot baseline: 0.55

Next section
KCNQ2 pot	KCNQ2 pot baseline	Compound
0.97	0.02	CCOC(=O)CSc1nc2ccc(C)cc2cc1C#N
0.03	-2.3	COc1ccc(NC(=O)COC(=O)Cn2c(C)nc3ccccc32)cc1OC
2.7	0.27	O=C(NC(=S)N1CCN(c2ccc(C(F)(F)F)cc2[N+](=O)[O-])CC1)c1cccs1
0.9	0.04	O=C(CCC(=O)N1CCCCC1)Nc1nnc(C2CCCCC2)s1
0.79	-1.7	CCn1c(SCc2cccc(F)c2)nnc1-c1ccncc1
0.5	0.37	O=C(CCN1C(=O)/C(=C\c2ccccc2F)SC1=S)Nc1ccc(C(=O)O)c(O)c1
0.02	0.12	COC(CNC(=O)[C@H](CSCc1ccccc1)N1Cc2ccccc2C1=O)OC
0.76	-0.26	NS(=O)(=O)c1ccc(CNC(=O)/C=C/c2ccccc2)cc1
1.35	-0.09	CCOC(=O)C1(CCOC)CCN(Cc2ccncc2)CC1
0.92	0.83	S=C(NC1CCCCC1)N1CCN(c2ncccn2)CC1
3.67	-0.03	CCc1ccc2nc(NC(=O)c3cc(C)on3)sc2c1
0.1	0.09	CCOC(=O)N1CCN(C(=O)c2ccc(CS(=O)c3ccccc3)o2)CC1 (stereo not given)
0.47	-0.54	O=C(Nc1ccc(OCC(=O)N2CCN(S(=O)(=O)c3ccccc3)CC2)cc1)c1ccco1
0.39	0.35	CCCOc1ccc(Cn2c(=O)oc3ccc(C)cc32)cc1

Some of the entries above, reformatted.
molecule	KCNQ2 pot	KCNQ2 pot baseline
O=C(CCN1C(=O)/C(=C\c2ccccc2F)SC1=S)Nc1ccc(C(=O)O)c(O)c1	0.5	0.37
NS(=O)(=O)c1ccc(CNC(=O)/C=C/c2ccccc2)cc1	0.76	-0.26
COC(CNC(=O)[C@H](CSCc1ccccc1)N1Cc2ccccc2C1=O)OC	0.02	0.12
O=C(NC(=S)N1CCN(c2ccc(C(F)(F)F)cc2[N+](=O)[O-])CC1)c1cccs1	2.7	0.27
S=C(NC1CCCCC1)N1CCN(c2ncccn2)CC1	0.92	0.83
CCn1c(SCc2cccc(F)c2)nnc1-c1ccncc1	0.79	-1.7

Some of the compounds tested. The share of hits here may be higher or lower than overall.
